Screening results from PubChem BioAssay.
MARV entry inh: qHTS for inhibitors of binding or entry into cells for Marburg Virus; Potency, µM (titrated, usually from 37.8 µM), inactives show at the top dose activity change, negative = inhibition, actives largely listed as inhibitors; 300,000 compounds, 1.8% hits; Marburg virus pseudotyped entry inhibition, cell reporter; control for the full effect not named in the record; about a third of the inactives were read at about 46 µM; AID 540276, 2011; active = well fitted inhibition curve with a large enough effect; inconclusive = small, poorly fitted or top-dose-only effect, or effect the other way; inactive = flat fitted curve, though single readings scatter; tested in HEK293 cells; about a fifth of its hits are not listed in these tables; also: % is scaled to controls: 0 for no effect and ±100 for the full control effect; luciferase read-out
SARS PLpro yeast: qHTS of Yeast-based Assay for SARS-CoV PLP. 330,000 compounds, 0.19% hits. AID 485353, 2010. Potency, µM (highest dose often 32.9 µM), for inactives: at the top dose activity, positive = growth rescue. S. cerevisiae expressing SARS-CoV PLpro, growth rescue; control for the full effect not named in the record; active means well fitted rising curve with a large enough effect; inconclusive means small, poorly fitted or top-dose-only effect; inactive means no such curve, though single readings can be large or run the other way; also: 0% is about no effect; nearly all actives have a fitted effect of over 55% in size; growth read by luminescence after 48 h
Cruzain inh noDet: qHTS Assay for Promiscuous and Specific Inhibitors of Cruzain (without detergent); purified cruzain, Z-FR-AMC fluorescence, no detergent; Potency, µM, without a hit: max response, negative = inhibition, actives largely listed as inhibitors; 200,000 compounds, 2.3% hits; AID 1476, 2009;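 also: plate controls were enzyme without inhibitor for no effect and buffer without enzyme for full effect; nearly all actives have a fitted effect of over 40% in size; top concentration of the series not given in the record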
Target sequence (P25779 123-467 limits assumed): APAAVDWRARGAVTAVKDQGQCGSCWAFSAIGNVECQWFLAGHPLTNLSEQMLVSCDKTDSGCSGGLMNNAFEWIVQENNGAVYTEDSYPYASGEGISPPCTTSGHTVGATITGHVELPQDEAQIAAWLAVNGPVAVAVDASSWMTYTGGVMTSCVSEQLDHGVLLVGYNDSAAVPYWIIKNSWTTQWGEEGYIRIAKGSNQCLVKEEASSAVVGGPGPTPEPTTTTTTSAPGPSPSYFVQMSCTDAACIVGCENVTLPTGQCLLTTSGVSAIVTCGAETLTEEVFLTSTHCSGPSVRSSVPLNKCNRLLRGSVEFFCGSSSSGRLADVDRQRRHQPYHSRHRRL
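Purified cruzain at 1.5 nM, pre-incubated 15 min with compound at room temperature in 100 mM sodium acetate pH 5.5, 5 mM DTT, 0.00005% Triton X-100. Reaction started with 2 uM Z-FR-AMC; AMC fluorescence increase over 60 s gives rate.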
LASV entry inh: qHTS for Inhibitors of binding or entry into cells for Lassa Virus; Potency, µM (highest dose often 37.9 µM), inactives show at the highest dose activity change, negative = inhibition, usual class: inhibitors; Lassa virus pseudotype entry inhibition, cell reporter; control for the full effect not named in the record; 300,000 compounds, 1.2% hits; active means well fitted inhibition curve with a large enough effect; inconclusive means small, poorly fitted or top-dose-only effect, or effect the other way; inactive means flat fitted curve, though single readings scatter; tested in HEK293 cells; also: % is scaled to controls: 0 for no effect and ±100 for the full control effect; nearly all actives have a fitted effect of over 50% in size; luciferase read-out
RE007 growth inh: qHTS Assay for Inhibitors of the HIV-1 protein Vpr. Potency, µM (top dose mostly 92.2 µM), inactives show at the highest dose activity change, negative = less growth. S. pombe RE007 Vpr strain, BacTiter-Glo ATP luminescence, 24 h; control for the full effect not named in the record. AID 651644, 2012. 360,000 compounds, 0.21% hits; active = well fitted falling curve with a large enough effect; inconclusive = small, poorly fitted or top-dose-only effect; inactive = no such curve, though single readings can be large or run the other way;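 also: % is scaled to controls: 0 for no effect and ±100 for the full control effect; nearly all actives have a fitted effect of over 50% in size; the assay follows cell death caused by Vpr and the record does not say whether a fall means rescue or toxicity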
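Fission yeast RE007 carrying one integrated HIV-1 vpr copy, seeded at OD 0.01 in PMG+AL medium with 23 nL pinned compound. Grown 24 h at 30 degrees; viability read by BacTiter-Glo luminescence after 5 min.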
2A StopGo: High Throughput Screening for Foot and Mouth Disease Virus Antivirals. human cells with a luciferase reporter of 2A StopGo recoding; control for the full effect not named in the record. Potency, µM (top dose mostly 57.9 µM), for the others: at the top dose signal change, negative = less light. 410,000 compounds, 1.2% hits; active = well fitted falling curve with a large enough effect; inconclusive = small, poorly fitted or top-dose-only effect; inactive = no such curve, though single readings can be large or run the other way; tested in HEK293T cells; also: % is scaled to controls: 0 for no effect and ±100 for the full control effect; nearly all actives have a fitted effect of over 45% in size; luciferase light after 4 h
Cruzain Triton: qHTS Assay for Promiscuous and Specific Inhibitors of Cruzain (with detergent); Cruzipain (Trypanosoma cruzi), P25779; purified cruzain, Z-FR-AMC fluorescence, 0.01% Triton; Potency, µM, inactives show max response, negative = inhibition, usual class: inhibitors; 200,000 compounds, 0.43% hits; AID 1478, 2009;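 also: plate controls were neutral wells for no effect and buffer without enzyme for full effect; nearly all actives have a fitted effect of over 40% in size; top concentration of the series not given in the record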
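Detergent-containing run (0.01% Triton X-100) in acetate buffer pH 5.5 with 5 mM DTT: enzyme at 1.5 nM final, 15 min compound preincubation at room temperature, then 2 uM Z-FR-AMC substrate. Activity taken as 60 s fluorescence increase at 360/450 nm.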
NS1 inh: qHTS Assay for Inhibitors of Influenza NS1 Protein Function. S. cerevisiae slowed by influenza A NS1, growth recovery by OD600. Potency, µM (doses to about 46.1 µM), for the others: at the highest dose activity, positive = more growth. 270,000 compounds, 0.4% hits; active means well fitted rising curve with a large enough effect; inconclusive means small, poorly fitted or top-dose-only effect; inactive means no such curve, though single readings can be large or run the other way; also: nearly all actives have a fitted effect of over 50% in size
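A cell-based growth assay was used: compounds that relieve NS1-induced slow growth of budding yeast raise OD600. Assay medium was yeast nitrogen base with ammonium sulphate and -URA supplement, pH 6.0, with 2% galactose.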
Starred values were filed as active, the others as inactive; ? = inconclusive; / = no result given; & = joins results of further samples; [ ] = another dose, or the depositor's remark. Unless noted, calls follow the shape of the dose curve; as a rule, active = well fitted curve in the direction sought with a large enough effect; inconclusive = small, poorly fitted or top-dose-only effect, or another doubt; inactive = no such curve, though single readings can be large; an effect the other way counts as inactive or inconclusive. Potency is read from the fitted curve at half-maximal effect.

SMILES | MARV entry inh | SARS PLpro yeast | Cruzain inh noDet | LASV entry inh | RE007 growth inh | 2A StopGo | Cruzain Triton | NS1 inh
COc1ccc(NC(=O)Cn2c(=O)ccc3cc(S(=O)(=O)N4CCCC4)ccc32)cc1Cl | / | / | 10% | -26%[46.1 µM] | / | 0% | -1.2% | /
CCOC(=O)c1c(CNc2ccncc2)n(C)c2cc(Br)c(O)cc12 | 24% | -1% | / | -4% | 10% | -7% | / | /
CC(C)CN(CCC(=O)O)CC(C)C | -1% | -3% | -3% | -1% | -9%[3.69 µM] | 0% | -0.3% | 8%
COc1ccc(NC(=O)COc2cccc(-n3cnnn3)c2)cc1Cl | ? | -3% | / | -6% | 12% | 4% | / | /
Cc1nc2sccn2c(=O)c1Cl | 25% | 0% | 5% | -9% | 5% | / | 2.5% | 0%
COc1ccc(NC(=O)/C(Cl)=C(/Cl)S(=O)Cc2ccccc2Cl)cn1 (stereo not given) | / | -25% | / | ? | ? | 3.2µM* | / | /
COc1cc(/C=N/NC(=O)c2ccncc2)ccc1OC(=O)c1cccc(Br)c1 | 1%[46.1 µM] | -4% | / | 26%[46.1 µM] | -14% | -14% | / | 11%
COc1ccc(N(CC(=O)NC(C)C)S(=O)(=O)c2ccc(NC(C)=O)cc2)cc1 | -1% | -6% | -3% | -18% | 4% | / | -6.3% | -2%
CCOC(=O)C1=C(C)NC2=C(C(=O)CCC2)C1c1cccs1 (stereo not given) | -6% | 2% | -6% | -19% | 4% | -26% | -4.5% | -4%
CCC(C)SCC(=O)Nc1ccc(S(=O)(=O)N2CCOCC2)cc1OC (stereo not given) | 4%[46.1 µM] | -1% | / | 3% | -1% | 2% | / | -8%
Clc1cccc(OCCN2CCN(CCOc3cccc(Cl)c3)CC2)c1 | ? | -30% | 7% | ? | -2% | ? | -0.1% | -53%
Cc1ccc(NC(=O)c2cc(S(=O)(=O)NCCc3ccccc3)ccc2F)cc1Cl | -21% | 18% | 14% | 13% | -2% | 13% | -7.5% | 6%
COc1ccc(C)cc1S(=O)(=O)Nc1cccc(SC)c1 | -12% | 3% | -12% | -18% | -1% | 84%[activator] | -5.3% | -2%
C/C(=N\NC(=O)C(=O)Nc1cccc(Cl)c1)c1ccncc1 | -3% | 4% | 1% | 8% | 0% | 0% | 1.2% | 6%
Cc1noc(C)c1COC(=O)CCC(=O)c1ccc(F)cc1 | 21% | 9% | 10% | 13% | -8% | -12% | 3.8% | -6%
O=c1c(S(=O)(=O)c2ccc(Cl)cc2)cn(Cc2ccccc2)c2ccc(F)cc12 | 2% | -4% | -9% | 0% | -8% | -5% | -1.0% | 7%
CCNC(=O)CCSc1nc(C)cc(C)n1 | ? | 1% | / | 0% | 1% | -9% | / | /
COCCCNC(=O)c1sc2nc3n(c(=O)c2c1C)CCC3 | / | / | 10% | 12%[46.1 µM] | / | -8% | -3.8% | /
O=C(NC1CCCCC1)c1ccc(S(=O)(=O)N2CCOCC2)cc1 | 6% | 10% | 7% | ? | -4% | / | 8.6% | 11%
CC(C)[C@@H](CSc1ccccc1)N1CCN(Cc2ccccc2)CCC1=O | / | 2% | / | / | -8% | -8% | / | -26%
CC(C)CCNC(=O)CCNS(=O)(=O)c1ccc(Cl)cc1 | 26% | 19% | -8% | 13% | 2% | 22% | 0.1% | 4%
CCOc1ccc(CCNC(=O)CN2C(=O)COc3ccc(S(=O)(=O)N(CC)CC)cc32)cc1 | ? | / | ? | 17%[46.1 µM] | / | 20% | 3.5% | /
CC(=O)C1=C(C)NC(SCc2cccc3ccccc23)=C(C#N)C1c1ccco1 (stereo not given) | -21% | -12% | ? | -19% | 1% | -21% | -9.5% | 7%
O=C(NCc1ccccn1)c1c(O)c2c([nH]c1=O)CCCC2 | 10% | 15% | -15% | 3% | -1% | / | 6.7% | -7%
Cc1cccc(NC(=O)c2ccc3ccccc3n2)c1C | ? | -11% | -4% | 10µM* | 8% | 9% | -3.8% | -7%
Later entries
SMILES | MARV entry inh | SARS PLpro yeast | Cruzain inh noDet | LASV entry inh | RE007 growth inh | 2A StopGo | Cruzain Triton | NS1 inh
CCOC(=O)c1c(NC(=O)CSc2nnc(-c3ccc(C)cc3)o2)sc(C(C)=O)c1C | 23% | -3% | 8% | -30% | 5% | 18% | 0.6% | 4%
O=C(Nc1nnc(S(=O)(=O)N2CCCCCC2)s1)c1ccccc1F | / | -6% | 9% | 1%[46.1 µM] | -15% | 33%&45%[activator] | -2.6% | -68%
Cc1c(Cl)cccc1NC(=O)CC(C(=O)O)C1CCCO1 (stereo not given) | 16% | 0% | -5% | -15% | -6%[3.69 µM] | -4% | 2.2% | 6%
CC(C)OCC(O)CN1CC2C[C@@H](C1)Cn1c2cccc1=O (stereo not given in full) | / | 0% | / | / | 2% | -2% | / | -1%
Cc1cc(C)n(C(=O)CNC(=O)c2cccs2)n1 | 5%&5% | -11% | -10% | 18% | 44% | 19% | 1.7% | -7%
O=C(Nc1ccc(NC(=O)C2CC2)nc1)c1ccco1 | ? | 2% | -22% | ? | 2% | 73%[activator] | 2.7% | -12%
O=C(COc1cc(Cl)c(Cl)cc1Cl)NC(=O)NC1CCCC1 | ? | -9% | 0% | -29% | -18% | 33%[activator] | -9.4% | 8%
COc1ccc(/C=N/N(C)c2cc(=O)n(C)c(=O)[nH]2)cc1OC | 6%[46.1 µM] | -1% | / | -2%[46.1 µM] | 7% | 15% | / | 4%
Cc1ccc(SCC(=O)OCC(=O)NCCC2=CCCCC2)cc1 | 13% | 0% | / | 18% | 5% | 1% | / | /
O=Nc1c(O)[nH]c2ccc(F)cc12 | -1%[46.1 µM] | -1% | / | 9%[46.1 µM] | 5% | -7% | / | /
CC(C)CNC(=O)COCc1cc(-c2ccc3c(c2)OCO3)on1 | 5% | 1% | / | ? | -17% | 99%[activator] | / | 4%
COc1ccc(OC)c(S(=O)(=O)N2c3cc(F)ccc3CCC2C)c1 (stereo not given) | -30% | / | 8% | 1% | 6% | 2% | -2.3% | -11%
CCN(CC)C(=O)CSc1n[nH]c(=O)n1CCc1ccccc1 | 3%[46.1 µM] | 1% | / | 3% | -19% | 13% | / | -3%
Cc1sc2nc(COC(=O)c3ccc(N4CCCC4)c([N+](=O)[O-])c3)[nH]c(=O)c2c1C | -21% | 25% | ? | 7% | 8% | ? | -7.3% | 21%
CCCCOc1ccc(C(=O)NCC(=O)NC(C)CCc2ccccc2)cc1 (stereo not given) | 1% | 0% | / | ? | 14% | -10% | / | -10%
Cc1cc(N2CCCCC2)nc2ccc(NC(=O)CCC(=O)N3CCN(c4ccccc4)CC3)cc12 | ? | / | -14% | -14%[46.1 µM] | / | -19% | -13% | /
COC(=O)c1cc(S(=O)(=O)N2CCN(c3cccc(C)c3)C(C)C2)c[nH]1 (stereo not given) | / | -3% | -4% | -30%[46.1 µM] | 0% | -7%&0% | -4.8% | -5%
Cc1ccc(C(C)C)c(Oc2nnnn2-c2ccccc2)c1 | ? | -5% | 2% | ? | -5% | / | -2.3% | -132%
O=C(O)CSC(=S)N1CCCC1 | / | 1% | / | / | 4% | -3% | / | 1%
COc1ccc(C2Nc3ccccc3C(=O)N2O)cc1CN1CCOCC1 (stereo not given) | -17% | 22µM* | -13% | -30% | 0% | 0% | -2.5% | 2%
O=C(COC(=O)Cc1cccs1)Nc1cccc(S(=O)(=O)N2CCOCC2)c1 | 4%[46.1 µM] | 2% | / | 2% | 4% | 11% | / | /
COc1ccc(-c2csc3nc(C)nc(N4CCN(C(C)=O)CC4)c23)cc1OC | 19%[46.1 µM] | -1% | / | -15% | -14% | -2% | / | -4%
CCc1ccccc1NC(=O)Cn1c(-c2nonc2N)nc2ccccc21 | 22%[46.1 µM] | / | -7% | 2%[46.1 µM] | / | -20% | -1.1% | /
CC(=O)N1CCN(C2=Nc3cccc4cccc2c34)CC1 | -11% | 0% | -1% | 27% | -5% | / | -2.9% | -3%
N#CC1=C(N)OC2=C(C(=O)CCC2)C12CCN(C(=O)OCc1ccccc1)CC2 | 23% | 4% | 8% | -6% | 10% | -16% | -3.6% | -15%
CCOP(=S)(OCC)C(O)CCCCCn1c(=O)c(F)cn(C2CCCO2)c1=O (stereo not given) | 16% | 4% | / | 2% | 3% | -1% | / | 10%
Cc1cc(C)c(C)c(S(=O)(=O)Nc2cccnc2)c1C | -4%[46.1 µM] | / | / | -11% | 18% | 0% | / | /
C=CCN1CCN(C(=O)c2ccc(-c3ccccc3)cc2)CC1 | / | -1% | / | / | 1% | -9% | / | -15%

Six compounds from above, ordered by length of the SMILES, low to high:
SMILES | MARV entry inh | SARS PLpro yeast | Cruzain inh noDet | LASV entry inh | RE007 growth inh | 2A StopGo | Cruzain Triton | NS1 inh
O=Nc1c(O)[nH]c2ccc(F)cc12 | -1%[46.1 µM] | -1% | / | 9%[46.1 µM] | 5% | -7% | / | /
Cc1cc(C)n(C(=O)CNC(=O)c2cccs2)n1 | 5%&5% | -11% | -10% | 18% | 44% | 19% | 1.7% | -7%
Cc1ccc(C(C)C)c(Oc2nnnn2-c2ccccc2)c1 | ? | -5% | 2% | ? | -5% | / | -2.3% | -132%
Clc1cccc(OCCN2CCN(CCOc3cccc(Cl)c3)CC2)c1 | ? | -30% | 7% | ? | -2% | ? | -0.1% | -53%
O=C(NC1CCCCC1)c1ccc(S(=O)(=O)N2CCOCC2)cc1 | 6% | 10% | 7% | ? | -4% | / | 8.6% | 11%
CCOc1ccc(CCNC(=O)CN2C(=O)COc3ccc(S(=O)(=O)N(CC)CC)cc32)cc1 | ? | / | ? | 17%[46.1 µM] | / | 20% | 3.5% | /
